Screening results: PubChem, Fisher Drug Discovery Resource Center
NPYLR7 ag = activates Aedes aegypti NPYLR7 receptor | actives 0.15% (n = 270,000) | AID 1259423 | HEK293T NPYLR7/Galpha15, GCaMP6s calcium fluorescence | activation, % at 10 µM; in the data active means activation above about 40%;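 further: 0% = vehicle and 100% = reference agonist at the receptor; some compounds past the cut are filed as inactive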
NPYLR7 ag max-min = second read-out of NPYLR7 ag, no call of its own (marks repeat the call); activation, %; measured here: Max-Min RFU normalised activation; some inactives read as strong as hits;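 span of the calcium signal over five minutes; 0% = vehicle and 100% = native peptide agonist; compound fluorescence can raise it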
* marks the source's active call; other numbers are inactive results; & = joins results of further samples.

Structure | NPYLR7 ag max-min | NPYLR7 ag
O=C(Nc1ccc2sccc2c1)c1coc2ccccc2c1=O | 18 | 11
O=C(COc1ccccc1F)Nn1cnc2c(cnn2-c2ccc(F)cc2)c1=O | -2 | 1
CCCOc1cc(F)ccc1NC(=O)NCc1nc(C)c(C)o1 | -5 | -5
CCc1ccc(-n2c(C(CC)N(Cc3ccco3)C(=O)c3ccc(Cl)cc3Cl)nc3ccccc3c2=O)cc1 (stereo not drawn) | 22 | 16
CC(C)Cc1cc(C(=O)N2CCOC(C(F)(F)F)C2)n(C)n1 (stereo not drawn) | 2 | 5
COC(=O)COc1cccc(NC(=O)Cc2ccc3c(c2)CCC3)c1 | 7 | 7
Cc1noc(C)c1CN1CCC(n2cc(-c3ccccn3)nn2)CC1 | -3 | 0
Cc1nc2c(N(C)Cc3cnn(-c4ccccc4C)c3)ncnc2o1 | -2 | -1

Continued:
Structure | NPYLR7 ag max-min | NPYLR7 ag
Oc1cc(-c2cccc3c2Sc2ccccc2S3)cc2c1OCCNC2 | 0 | 3
CCOC(=O)c1csc(CCNC2CCSCC2)n1 | -1 | 2
O=S(=O)(c1cccc(Cl)c1Cl)N1C[C@@H]2[C@H](C1)[C@H]1CC[C@@H]2O1 | 7 | 8
Cc1ccc(C2CCCN2S(=O)(=O)CCOC(C)C)s1 (stereo not drawn) | 2 | 1
CC(C)Cc1cc(CNc2ncnc3sc4c(c23)CCNC4)no1 | -19 | -14
CC(C)CN(Cc1cc2c(cc1Br)OCCO2)C1CC1 | -7 | -5
COc1ccc(OCC(=O)Nc2c3c(nn2CC(=O)NCc2ccco2)CSC3)cc1 | 4 | -4
O=C(Cc1cccc(F)c1)N1CCOc2ccc(CN3CCN(Cc4ccccn4)CC3)cc2C1 | 11 | 17

Next section:
Structure | NPYLR7 ag max-min | NPYLR7 ag
Clc1ccc(-c2csc3ncnc(N4CCCCC4)c23)cc1 | 7 | 2
CC(C)(COC(=O)CN1CCCC1)COC(=O)CN1CCCC1 | 1 | 12
CCCC1=NN2C(=N)/C(=C/c3ccc(N(C)C)cc3)C(=O)N=C2S1 | 8 | 8
O=S(=O)(NCCc1csc2nc(-c3ccccc3)nn12)c1ccc2c(c1)OCCO2 | 1 | -4
CCOCCn1c(SCC(=O)O)nc2c1c(=O)[nH]c(=O)n2C | 43 | -2
COCCN(Cc1cc(Cl)ccc1OCc1nc(CO)cs1)C(=O)c1ccco1 | -1 | -5
COCCOc1nc(-c2ccc(OC)cc2)n(-c2cccc(NC(=O)c3ccc4c(c3)OCO4)c2)n1 | 10 | -4
CNC(=O)CSc1nc2c(-c3ccccc3)c(C)nn2c(=O)[nH]1 | -4 | 7

Continuation:
Structure | NPYLR7 ag max-min | NPYLR7 ag
O=C1/C(=C/c2ccc(-c3ccc(Br)cc3)o2)C=C(c2ccccc2)N1c1ccc(F)cc1 | 5 | 0
COc1cccc(C(=O)N(CC(=O)N2CCc3sccc3C2COc2ccccc2OC)C2CC2)c1 (stereo not drawn) | -2 | -4
CCn1cnnc1CN(C)C(=O)c1cc2c(cc1OC)CCC2 | 8 | 1
Cc1ccc(S(=O)(=O)N2CCCCC2)cc1NS(=O)(=O)c1ccc2c(c1)OCCCO2 | -3 | -3
O=C1NC2(CCN(Cc3ccoc3)CC2)Nc2ccc(Br)cc21 | 4 | 0
CCc1nc(-c2ccccc2)nc(N2CCN(C(=O)COC)CC2)c1Cc1ccc(F)cc1 | 13 | 5
CC(c1ccccc1)n1c(C(=O)N2CCc3ccccc3C2)cc2ccsc21 (stereo not drawn) | 32 | 34
Cc1ccc(NC(=O)C(C)NCCCc2c(C)n[nH]c2C)cc1 (stereo not drawn) | 0 | 7

New compounds follow.
Structure | NPYLR7 ag max-min | NPYLR7 ag
CCN(Cc1ccccn1)C(=O)c1ccccc1OC1CCC1 | -2 | -2
CC(C)(C)c1ccc(CN2CCN(S(N)(=O)=O)CC2)cc1 | 3 | 7
COc1ccccc1N1CCN(c2ccc(NC(=O)c3cccc4ccccc34)cc2C(=O)NCc2ccc(F)cc2)CC1 | 14 | 12
C=CCn1c(SCc2cc(=O)[nH][nH]2)nc2sc(CC)cc2c1=O | 1 | 3
Cn1c(=O)oc2cc(S(=O)(=O)Nc3ccc(S(N)(=O)=O)cc3)ccc21 | 3 | 4
COc1ccccc1OCCCOc1ccc(C)cc1Br | 0 | 1
CCSc1nnc(NC(=O)c2cccc(C(F)(F)F)c2)s1 | -9 | -3
CCc1cccc(C(=O)O)c1O | 0 | 1

(cont.)
Structure | NPYLR7 ag max-min | NPYLR7 ag
c1cncc(-c2nc(NC3CCCCC3)c3c4c(sc3n2)CCC4)c1 | -7 | -4
CCN(CC)C(=O)CN1CCN(C(=O)c2cn(C)cc3c(=O)n(-c4ccccc4)nc2-3)CC1 | -8 | -6
COc1cccc(C(=O)N(CCN(C)C)Cc2csc(COc3cccc(C)c3C)n2)c1 | 20 | 17
O=C(NCc1ccco1)c1cc(-c2ccccc2F)nc2cc(-c3ccccc3)nn12 | -4 | -9
CCOc1nc(-c2ccccc2C)n(-c2ccc(NCC(O)COCC(C)C)cc2)n1 (stereo not drawn) | 1 | -3
c1csc(-c2ccc3ncc(-c4ccoc4)n3n2)c1 | -7 | -5
O=C(c1c(Cl)cccc1Cl)N1CCN(C2c3ccccc3CCc3ccccc32)CC1 | 13 | 7
CCNC(=S)N(CCN1CCOCC1)Cc1cc(Cl)ccc1OCc1nc(CO)cs1 | 10 | -1

(more compounds)
Structure | NPYLR7 ag max-min | NPYLR7 ag
CCOC(=O)N1CCN(Cc2ccc(OC)c(OCC(O)CN3CCCCC3)c2)CC1 (stereo not drawn) | -3 | 1
C=CCN1C(=O)NC(c2ccccc2Cl)C2=C1CN(CC(=O)Nc1ccc(OC)cc1)C2=O (stereo not drawn) | 7 | -1
CC(C(=O)NCc1ccco1)N1CCN(S(=O)(=O)c2ccc3c(c2)CCC3)CC1 (stereo not drawn) | 1 | 7
Cc1ccc(-c2nc3c(sc4ncccc43)c(=O)o2)cc1 | 2 | 5
C=CCNc1ccccc1C(=O)N1CCn2nc(C(=O)N3CCCC3)cc2C1 | 2 | 3
C=CCn1c(=O)c2ccccc2n2c(SCC(=O)Nc3ccon3)nnc12 | -10 | -15
N#Cc1c(N2C(=N)C(C#N)C(c3ccsc3)C3=C2CCCC3=O)sc2c1CCCC2 (stereo not drawn) | 7 | 8
Cc1cccnc1CN1CCN(C(=O)CCc2nnc(CCc3ccccc3)o2)CC1 | -3 | -1

Next entries.
Structure | NPYLR7 ag max-min | NPYLR7 ag
Cc1cccc(N2CCN(C(=O)c3cc(=O)c(OCc4ccccc4)co3)CC2)c1 | -2 | -1
COc1ccc(-c2cnc3ncnn3c2N2CCN(c3c(Cl)cncc3Cl)CC2)cc1 | 1 | 4
CCCc1nc(C)cc(N2CCC(N(C)C)C2)n1 (stereo not drawn) | 9 | 12
O=c1cc(CN2CCC3(CC2)OCCO3)c2cc(O)c(-c3ccccc3)cc2o1 | 1 | 3
CCc1nc2ccc(C(=O)NCCOc3ccc(OC)cc3)cn2c1N(CC)CCN(C)C | -9 | -6
Cc1ccc(CN2CCCC(CO)(Cc3ccccc3)C2)cc1C (stereo not drawn) | -18 | -14
CCn1ccnc1CN1CCCC(CNC(=O)C2(c3ccc(Cl)cc3)CC2)C1 (stereo not drawn) | 4&4 | 7&8
COc1cc(C(=O)N2CCN(c3nc4nccc(-c5ccc(C(C)(C)C)cc5)n4n3)CC2)cc(OC)c1OC | 2 | 2

Next compounds.
Structure | NPYLR7 ag max-min | NPYLR7 ag
CC(Oc1cc(Cl)c(Cl)cc1Cl)C(=O)NCc1ccccc1 (stereo not drawn) | 20 | -5
Cc1oc(-c2cccc(C(F)(F)F)c2)cc1CO | -7 | -5
C#CCn1cnc2c(nnn2-c2ccc(OC(F)(F)F)cc2)c1=O | -8 | 0
O=C1NCCCCC1Sc1nc2ncccn2n1 (stereo not drawn) | 3 | 4
O=S(=O)(NCCOc1ccc2nnc(-c3ccccc3)n2n1)c1cccnc1 | -5 | -5
c1nc2nc3c(c(N4CCN(Cc5ccc6c(c5)OCO6)CC4)n2n1)CCC3 | -7 | -4
COCc1c(Br)c(C)nc(OCC(=O)N/N=C\c2ccc(Br)o2)c1C#N | -11 | -6
O=[N+]([O-])c1ccc(-c2n[nH]c(=S)n2-c2ccccc2)cc1 | -13 | -7

Carrying on.
Structure | NPYLR7 ag max-min | NPYLR7 ag
O=C(CC(c1ccccc1)c1ccccc1F)N1CCN(C(=O)c2ccco2)CC1 (stereo not drawn) | -4 | -1
CN=c1scc(-c2cc(F)ccc2OC)n1/N=C\c1ccc(NC(C)=O)cc1 | 6 | 7
CC(=O)N1N=C(c2ccncc2)OC1C(=O)NC(C)c1ccc(O)cc1 (stereo not drawn) | -5 | -1
CC(C)C(=O)N(Cc1nccn1Cc1ccc(F)cc1)C(C)C | 5 | 6
CCOCCn1nc(C2CCCNC2)n(-c2ccccc2)c1=O (stereo not drawn) | 0 | 1
CCOC(=O)C1CCCN(c2c(N3CCC(C)CC3)c(=O)c2=O)C1 (stereo not drawn) | 5 | 5
Cc1ccc(-n2cccn2)c(CN2CCCC(Nc3ccccc3)C2)c1 (stereo not drawn) | -5 | -3
Cn1c(=O)c2c(SCC(=O)Nc3nccs3)nc(-c3ccccc3F)nc2n(C)c1=O | -7 | -2

Next results.
Structure | NPYLR7 ag max-min | NPYLR7 ag
CCn1cnnc1CCNC(=O)c1cccc(CC2CCNCC2)c1 | -12 | -6
CC1(C)OCC(COCc2cc(C(C)(C)C)c(O)c(C(C)(C)C)c2)O1 (stereo not drawn) | 14 | 0
N#Cc1c(NC(=O)CC2(CC(=O)O)CCCC2)sc2c1CCCC2 | 0 | -1
Cc1cc(C(NS(=O)(=O)c2cn(C)cn2)C(C)C)c(C)s1 (stereo not drawn) | 1 | 6
CN(C)c1cccc(-c2nc3cc(N)ccc3o2)c1 | -8 | -4
Cc1cc(C)n(Cc2cccc(C(=O)N(C)c3cccc(C#N)c3)c2)n1 | 49 | 0
CCOC(=O)c1sc2nc(-c3ccc(OC)cc3)cc(-c3ccco3)c2c1N | -11 | -7
COc1ccc(NC(=O)CSc2nc(=O)n(CCO)c3c2CCCC3)cc1 | -17 | -10

Going on with the list:
Structure | NPYLR7 ag max-min | NPYLR7 ag
COC(=O)CCCC(=O)N1CCN(Cc2cc(=O)c(OCc3ccc(C(C)(C)C)cc3)co2)CC1 | 9 | -1
O=C(C1CCN(S(=O)(=O)c2ccc(F)cc2)CC1)N1CCCSc2ccccc21 | -8 | -6
CC1(C)C=C(CCOC(=O)NCC2COc3ccccc3O2)CC(C)(C)N1 (stereo not drawn) | -16 | -10
CCOC(=O)c1c(NC(=O)C(OC(C)=O)c2ccccc2)c(-c2cccc(F)c2)cn1Cc1ccccc1 (stereo not drawn) | 1 | 4
CC1=NN(Cc2cc(C)ccc2C)c2nc3c(c(=O)n(C)c(=O)n3C)n2C1 | 3 | 8
O=c1[nH]cc(N=Cc2cc(Br)c(Br)o2)c(=O)[nH]1 | 0 | 2
CC(C)c1ccc(CC(=O)N2CCC2(C)C(=O)NCC(C)(C)C)cc1 (stereo not drawn) | 1 | 2
CN(C)c1cccc(C(=O)NC2CC(=O)N(C3CCCCCC3)C2)c1 (stereo not drawn) | -4 | 9

Going on with the list:
Structure | NPYLR7 ag max-min | NPYLR7 ag
CSc1cccc(NC(=O)N2CCC(CCC(=O)Nc3ccccc3)CC2)c1 | -10 | -2
COc1ccc(CCNC(=O)CSc2ncnc3sc(C)c(C)c23)cc1 | -6 | -3
Cc1ccc(-n2nnc(-c3nc(C)c(C(=O)N4CCSCC4)s3)c2C)cc1C | 8 | 15
Cc1ccc(Cc2nsc(N3CCCN(C(=O)Nc4cccc(Br)c4)CC3)n2)cc1 | 2 | -6
CCC(=O)NC(NC(=S)Nc1ccccc1O)C(Cl)(Cl)Cl (stereo not drawn) | -13 | -6
NC(=O)[C@@H]1CN2CCN(C(=O)CCc3ccccc3)C[C@@H]2[C@H]1c1ccccc1 | 8 | 2
CCC(C)(NC(=O)c1nc(C2CC2)n(-c2ccccc2)n1)C(=O)OC (stereo not drawn) | 1 | -1
CCCCC(CC)CNC(=O)C1OC(c2ccccc2)=NN1C(C)=O (stereo not drawn) | 6 | 12

Further records follow:
Structure | NPYLR7 ag max-min | NPYLR7 ag
Cc1sc(NC(=O)c2ccc3c(c2)CC(C)N3S(C)(=O)=O)nc1-c1ccc(F)cc1 (stereo not drawn) | 14 | 11
CCOC(=O)c1ccc(NC(=O)c2cc(=O)c(OC)co2)cc1 | 6 | 14
COCCNC(=O)CSc1nc(Cl)cc(N2CCN(c3ccccc3F)CC2)n1 | 11 | -6
COC(=O)c1ccc(Oc2nccc(C(F)(F)F)n2)c(Br)c1 | 2 | 2
COc1ccc2[nH]c3c(=O)n(CCCCC(=O)NCCC(C)C)c(=S)[nH]c3c2c1 | -12 | -7
COc1ccc(Nc2ncccc2C(=O)NCCN2CCCCC2)cc1 | -12 | -7
COC(=O)C1=C(C)NC2=C(C(=O)CCC2)C1c1ccc(C)cc1 (stereo not drawn) | -1 | 2
COCCn1c(SCC(=O)NNC(=O)c2ccccc2)nc2cc(Cl)ccc2c1=O | 4 | 11

Next part.
Structure | NPYLR7 ag max-min | NPYLR7 ag
Cc1cccc(C)c1Nc1c(-c2cccc(F)c2)nc2c(C)cccn12 | 16 | 4
Cc1ccc(-c2c(C)nn3c(N4CCCC4)cc(C)nc23)cc1 | -10 | -8
COCc1cc(C)nc(N/N=C\c2ccc(-c3ccc(C)cc3[N+](=O)[O-])o2)c1C#N | 1 | 1
CCN(C(=O)c1cc(C)ccc1C)c1ccc(OC)nc1 | 1 | 3
COc1ccc(OC)c(C(C)NC(=O)CN2CCCC2c2ccc3c(c2)OCCO3)c1 (stereo not drawn) | 14 | 0
CCOP(=O)(OCC)C(=C(NC(=O)c1ccccc1)C(=O)O)c1ccccc1 | -2 | -1

Some of the compounds tested, so the mix of outcomes need not match the whole.
